Bioassay records from PubChem BioAssay.
Rango complex inh: prevents formation of the Rango-importin beta complex | Potency, µM (top dose mostly 92.2 µM), inactives show top-dose inhibition of complex formation | Q14974 | 340,000 compounds, 0.031% hits | Rango CFP/YFP FRET sensor + importin beta, 45 min; active = rising FRET ratio curve, often small or poorly fitted; inconclusive = mostly compound fluorescence or quenching in the first reads; inactive = flat curves in all reads;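 further: potency means the concentration at half of the fitted maximal effect; 0% = DMSO wells and 100% = buffer wells lacking importin beta; nearly all actives have a fitted effect of over 15% in size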
Target sequence (Q14974 whole entry, looked up): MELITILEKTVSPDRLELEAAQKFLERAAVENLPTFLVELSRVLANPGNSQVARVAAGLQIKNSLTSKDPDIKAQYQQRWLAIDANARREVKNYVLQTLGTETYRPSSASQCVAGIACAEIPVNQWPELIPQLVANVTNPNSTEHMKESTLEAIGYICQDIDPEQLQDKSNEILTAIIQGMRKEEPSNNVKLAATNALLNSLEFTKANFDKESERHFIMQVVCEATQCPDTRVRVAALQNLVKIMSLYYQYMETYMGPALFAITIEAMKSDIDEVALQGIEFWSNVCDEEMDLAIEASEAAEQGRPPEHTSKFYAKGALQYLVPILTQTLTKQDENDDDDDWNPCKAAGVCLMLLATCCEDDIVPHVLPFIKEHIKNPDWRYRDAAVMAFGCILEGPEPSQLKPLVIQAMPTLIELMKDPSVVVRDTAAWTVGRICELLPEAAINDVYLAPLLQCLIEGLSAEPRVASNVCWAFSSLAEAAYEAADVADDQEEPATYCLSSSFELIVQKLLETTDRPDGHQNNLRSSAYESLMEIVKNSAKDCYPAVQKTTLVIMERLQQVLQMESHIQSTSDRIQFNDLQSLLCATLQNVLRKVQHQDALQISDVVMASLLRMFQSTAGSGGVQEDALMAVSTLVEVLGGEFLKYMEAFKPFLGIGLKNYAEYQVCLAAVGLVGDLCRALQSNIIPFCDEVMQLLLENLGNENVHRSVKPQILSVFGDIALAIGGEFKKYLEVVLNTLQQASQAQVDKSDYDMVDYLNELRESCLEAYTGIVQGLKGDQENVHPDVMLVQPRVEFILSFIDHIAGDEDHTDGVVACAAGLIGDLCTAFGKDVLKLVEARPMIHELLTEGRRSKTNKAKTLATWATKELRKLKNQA
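FRET biosensor (snurportin 1 IBB flanked by EYFP and cerulean), 50 nM, with compound 5 min, then 0.125 microM importin beta in PBS, 1 mM DTT, 0.02% Tween-20, 0.1% BSA. CFP/YFP ratio read after 45 min at room temperature; pre-read flags interference.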
Rango release inh: inhibition of RanGTP-driven Rango-importin beta dissociation. O95149+P62826. Biochemical FRET Rango-importin beta, RanGTP-induced dissociation. Potency, µM (titrated, usually from 46.1 µM), for the others: at the top dose activity change, negative = inhibition. 340,000 compounds, 0.071% hits. AID 540253; active means falling FRET ratio curve, often poorly fitted, with flat reads before Ran was added; inconclusive means other falling curves, or compound fluorescence or quenching; inactive means flat or rising ratio curve;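 further: potency means the concentration at half of the fitted maximal effect; % of control where 0% means no effect; nearly all actives have a fitted effect of over 45% in size; -100% = wells without RanGTP and RCC1; the record marks most hits as doubtful in a second field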
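Recombinant Rango FRET biosensor (EYFP–snurportin 1 IBB–cerulean CFP10) at 0.1 uM premixed with 0.25 uM importin beta in PBS, 1 mM DTT, 0.02% Tween-20, 0.1% BSA. Compound added 5 min; RanGTP-RCC1 (0.6 uM Ran, 2 mM GTP, 0.2 uM RCC1) then triggers release, read at 45 min.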
miR-21 reporter: raises the signal of a miR-21 reporter; AID 2288; 340,000 tested, under 10 active; HeLa miR-21 FLuc reporter, luciferase, 48 h; Potency, µM (series often up to 38.3 µM), without a hit: at the highest dose reporter change, positive = more light; active = well fitted rising curve with a large enough effect; inconclusive = small, poorly fitted or top-dose-only effect; inactive = no such curve, though single readings can be large or run the other way;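 further: % of control where 0% means no effect; miR-21 action dims this reporter so a rising signal means less miR-21 action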
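HeLa cells endogenously expressing miR-21, stably carrying CMV-driven firefly luciferase with a downstream miR-21 binding site, 2000 cells/well. Titrations up to approximately 40 uM, 48 hours; luciferase luminescence read.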
GLA inh pH 4.5: blocks human alpha-galactosidase A at pH 4.5; 230,000 tested, under 10 active; AID 1467; P06280; activity change, negative = inhibition, % at 105 µM; purified enzyme, 4-MU-alpha-Gal fluorescence, pH 4.5; inconclusive = small, poorly fitted or top-dose-only inhibition, or a rising curve; inactive = flat fitted curve, though single readings scatter; no compound was filed as active;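 further: 0% = full activity with enzyme and -100% = basal without enzyme; dose as in the result columns while the protocol names 77 µM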
Numbers without * were called inactive. Not all compounds are listed; count on the stated rates, not on these rows.

COc1ccc2o/c(=N/NC(=O)c3cccs3)c(C(N)=O)cc2c1 was read as Rango complex inh inconclusive, Rango release inh inconclusive, miR-21 reporter -38% and GLA inh pH 4.5 -6.
Screening NC(=O)C[C@H](N)c1cn([C@@H](CC(N)=O)C(=O)N2CCNCC2)nn1 returned Rango complex inh 0.8% and Rango release inh -13%.
Screening Cc1cccc(NC(=S)NCc2ccccc2Cl)c1C returned Rango complex inh 7.8%, Rango release inh -13% and miR-21 reporter -5%.
Screening Cc1c(Cl)cccc1NC(=S)N1CCCN(Cc2ccc(F)cc2)C1 returned Rango complex inh 0.9%, Rango release inh -10%, miR-21 reporter 4% and GLA inh pH 4.5 -7.
Screening CCCCNC(=O)Nc1ccc(C2SCCS2)cc1 returned Rango complex inh 0.4%, Rango release inh -3%, miR-21 reporter -52% and GLA inh pH 4.5 3.
O=C(NCCO)/C(=C/c1ccco1)NC(=O)c1ccco1 was read as Rango complex inh inconclusive and Rango release inh -12%.
Screening COc1ccc(C(=O)Nc2cc(C)on2)c(OC)c1 returned Rango complex inh 4.8%, Rango release inh 2% and miR-21 reporter -43%.
`CCOC(=O)c1cncc(C#CCOC(=O)Nc2ccc(OC(F)(F)F)cc2)c1` gave Rango complex inh 0.7%, Rango release inh 16%, miR-21 reporter -3% and GLA inh pH 4.5 -9.
`O=C(O)C1C2CCC(O2)C1C(=O)Nc1ccc(O)cc1` (stereo not given) gave Rango complex inh -0.8%, Rango release inh -1%, miR-21 reporter -2% and GLA inh pH 4.5 -4.
Screening Cc1ccccc1C(=O)N1CCc2c([nH]c3ccccc23)C1C(F)(F)F (stereo not given) returned Rango complex inh -0.5%, Rango release inh 10%, miR-21 reporter 18% and GLA inh pH 4.5 -10.

Reprinted at random: 2 entries already listed.
`O=C(O)C1C2CCC(O2)C1C(=O)Nc1ccc(O)cc1` (stereo not given) gave Rango complex inh -0.8%, Rango release inh -1%, miR-21 reporter -2% and GLA inh pH 4.5 -4.
O=C(NCCO)/C(=C/c1ccco1)NC(=O)c1ccco1 was read as Rango complex inh inconclusive and Rango release inh -12%.

The main list resumes; the two compounds before the break are reprinted first.
`O=C(O)C1C2CCC(O2)C1C(=O)Nc1ccc(O)cc1` (stereo not given) gave Rango complex inh -0.8%, Rango release inh -1%, miR-21 reporter -2% and GLA inh pH 4.5 -4.
Screening Cc1ccccc1C(=O)N1CCc2c([nH]c3ccccc23)C1C(F)(F)F (stereo not given) returned Rango complex inh -0.5%, Rango release inh 10%, miR-21 reporter 18% and GLA inh pH 4.5 -10.
For Cc1cc(N2CCN(C(=O)c3ccco3)CC2)c2ccccc2n1 the results were Rango complex inh -3.5%, Rango release inh 6%, miR-21 reporter 1% and GLA inh pH 4.5 -2.
For CC(NC(=O)Cc1ccccc1[N+](=O)[O-])c1ccccc1 (stereo not given) the results were miR-21 reporter -5% and GLA inh pH 4.5 1.
CN1/C(=C\C(=O)c2cccnc2)C(C)(C)c2ccccc21 was read as Rango complex inh -1.6%, Rango release inh 17%, miR-21 reporter -33% and GLA inh pH 4.5 -3.
CCCn1nc(C(=O)Nc2nnc(CC)s2)c2ccccc2c1=O was read as Rango complex inh 2.6%, Rango release inh 0%, miR-21 reporter -5% and GLA inh pH 4.5 2.
O=C1CCCN1c1ccc(S(=O)(=O)Oc2ccc(Cl)cc2)cc1[N+](=O)[O-] was read as Rango complex inh 0.0%, Rango release inh -1%, miR-21 reporter 18% and GLA inh pH 4.5 1.
`CC(C)c1ccc(NC(=O)C2CSC3(C)CCC(=O)N23)cc1` (stereo not given) gave Rango complex inh 1.2%, Rango release inh -3% and miR-21 reporter -18%.
`CN(CCOc1ccccc1)C(=O)c1ccc(F)c(S(=O)(=O)N2CCOCC2)c1` gave Rango complex inh 3.3% and Rango release inh 6%.
For Cc1cc(C)c(NC(=O)CSc2nnc(-c3ccncc3)n2Cc2ccco2)c(C)c1 the results were Rango complex inh -2.1%, Rango release inh 2%, miR-21 reporter -5% and GLA inh pH 4.5 9.
For CCN(Cc1nc(-c2ccccc2)no1)C(=O)c1ccco1 the results were Rango complex inh 3.7%, Rango release inh -5% and miR-21 reporter -22%.
For CC(=O)c1sc2nc(CSc3nnnn3-c3ccccc3)[nH]c(=O)c2c1C the results were Rango complex inh inconclusive, Rango release inh -18%, miR-21 reporter -1% and GLA inh pH 4.5 -20.

4 structures out of the list, ordered by molecular weight, ascending.
CN1/C(=C\C(=O)c2cccnc2)C(C)(C)c2ccccc21 was read as Rango complex inh -1.6%, Rango release inh 17%, miR-21 reporter -33% and GLA inh pH 4.5 -3.
For CC(NC(=O)Cc1ccccc1[N+](=O)[O-])c1ccccc1 (stereo not given) the results were miR-21 reporter -5% and GLA inh pH 4.5 1.
For Cc1cc(N2CCN(C(=O)c3ccco3)CC2)c2ccccc2n1 the results were Rango complex inh -3.5%, Rango release inh 6%, miR-21 reporter 1% and GLA inh pH 4.5 -2.
For CC(=O)c1sc2nc(CSc3nnnn3-c3ccccc3)[nH]c(=O)c2c1C the results were Rango complex inh inconclusive, Rango release inh -18%, miR-21 reporter -1% and GLA inh pH 4.5 -20.

Next section
For CC(C)OCCCN1CN(S(=O)(=O)c2ccccc2)c2nc3ccccc3nc21 the results were Rango complex inh -0.4%, Rango release inh -8%, miR-21 reporter -54% and GLA inh pH 4.5 1.
For O=C1NC(=S)S/C1=C\c1cccc([N+](=O)[O-])c1 the results were Rango complex inh 3.1% and Rango release inh -10%.
O=C(CCc1nc2ccccc2c(=O)[nH]1)NNC(=O)COc1cccc(F)c1 was read as Rango complex inh -3.3% and Rango release inh 6%.
For O=C(c1ccc(Br)o1)N1CCN(CCc2ccncc2)CC1 the results were Rango complex inh 0.5%, Rango release inh 7% and miR-21 reporter -6%.
`O=C(O)C(Cc1ccccc1)n1c(=S)[nH]c2ccccc2c1=O` (stereo not given) gave Rango complex inh -0.3%, Rango release inh -13%, miR-21 reporter 5% and GLA inh pH 4.5 -3.
For C/C(=N/NC(=O)c1ccc(Br)o1)c1ccncc1 the results were Rango complex inh -1.2%, Rango release inh -3%, miR-21 reporter -38% and GLA inh pH 4.5 -4.
Screening CC1=CCC(COC(=O)Nc2ccccc2)CC1 (stereo not given) returned Rango complex inh -0.1%, Rango release inh 0%, miR-21 reporter -47% and GLA inh pH 4.5 -8.
COc1ccc(CC(=O)n2c(CC#N)nc3ccccc32)cc1OC was read as Rango complex inh 0.2%, Rango release inh -4%, miR-21 reporter -1% and GLA inh pH 4.5 9.
For O=C(NNC(=O)c1ccccc1F)c1ccc(NS(=O)(=O)c2ccc(F)cc2)cc1 the results were Rango complex inh 1.6% and Rango release inh 6%.
`COC(=O)c1sccc1-c1ccc(C(=O)Nc2cccc(Cl)c2)o1` gave Rango complex inh -5.4%, Rango release inh 7%, miR-21 reporter -40% and GLA inh pH 4.5 4.
Screening CCCC(=O)N=c1sc2c(OC)ccc(OC)c2n1C returned Rango complex inh -5.7%, Rango release inh 28%, miR-21 reporter 5% and GLA inh pH 4.5 -17.
For CCOC(=O)c1nc(SC)n(C)c1C(=O)OCC the results were Rango complex inh -2.4%, Rango release inh -5%, miR-21 reporter 2% and GLA inh pH 4.5 1.
Screening CN(C(=O)CC1C(=O)NCCN1Cc1cccc(F)c1F)C1CC(C)(C)NC(C)(C)C1 (stereo not given) returned Rango complex inh -0.1%, Rango release inh 1% and miR-21 reporter -3%.
For CC12CCC3c4ccc(O)cc4CCC3C1CC(O)C2O (stereo not given) the results were Rango complex inh 4.3% and Rango release inh -18%.
For O=C(Cc1nnc(NC(=O)c2ccccc2)s1)N/N=C/c1cccc(O)c1 the results were Rango complex inh -5.4%, Rango release inh -20% and miR-21 reporter -4%.
Screening COc1ccc(C(=O)NCCc2c[nH]c3ccccc23)cc1S(=O)(=O)N1CCCCC1C (stereo not given) returned Rango complex inh inconclusive and Rango release inh -10%.
Cc1ccc(C(=O)Nc2ccc(CN3CCS(=O)(=O)CC3)cc2)cc1C was read as Rango complex inh -3.1%, Rango release inh -14%, miR-21 reporter -35% and GLA inh pH 4.5 -9.
Screening CCN(CC(=O)NC(C)C)Cc1nc2sc3c(c2c(=O)[nH]1)CCC3 returned Rango complex inh -0.4%, Rango release inh -10%, miR-21 reporter -2% and GLA inh pH 4.5 0.
For CCOC(=O)N1CCN(S(=O)(=O)c2c(C)nn(C)c2C)CC1 the results were Rango complex inh -0.2%, Rango release inh -5%, miR-21 reporter -4% and GLA inh pH 4.5 7.
For c1ccc(COc2ccc(OCCCN3CCCCC3)cc2)cc1 the results were Rango complex inh 0.3%, Rango release inh -12%, miR-21 reporter -39% and GLA inh pH 4.5 -5.
For NS(=O)(=O)c1ccc(N/N=C/c2ccc3c(c2)OCO3)c([N+](=O)[O-])c1 the results were Rango complex inh 0.2%, Rango release inh 11%, miR-21 reporter -12% and GLA inh pH 4.5 4.
`Fc1ccc(C2CCCCN2Cc2nc(CC3CC3)no2)cc1` (stereo not given) gave Rango complex inh 0.4%, Rango release inh 16%, miR-21 reporter 0% and GLA inh pH 4.5 12.
Cc1cc(N2CCN(C3CCCCC3)CC2)nc2cccc(O)c12 was read as Rango complex inh -1.5%, Rango release inh 17%, miR-21 reporter -4% and GLA inh pH 4.5 2.
For O=C(Nc1ccc(Cl)cc1)c1cccs1 the results were Rango complex inh inconclusive, Rango release inh 35%, miR-21 reporter -28% and GLA inh pH 4.5 2.
CSc1nnc(CNS(=O)(=O)c2ccc(Cl)cc2)n1C was read as Rango complex inh -1.4%, Rango release inh -9%, miR-21 reporter -2% and GLA inh pH 4.5 4.
For Cn1c(Cn2c(=O)sc3ccccc32)nnc1SCc1ccccn1 the results were Rango complex inh 0.5%, Rango release inh -6%, miR-21 reporter -8% and GLA inh pH 4.5 2.
For Cc1nc2ccc(S(=O)(=O)NC(C(=O)Nc3nc4ccc(Cl)cc4s3)C(C)C)cc2s1 (stereo not given) the results were Rango complex inh 3.7%, Rango release inh -22%, miR-21 reporter -11% and GLA inh pH 4.5 -9.
`O=C(NCCc1cccc(Cl)c1)c1cccc(-n2cnnn2)c1` gave Rango complex inh 1.0% and Rango release inh -8%.
For Cc1ncc([N+](=O)[O-])n1CCOC(=O)NC(NCc1cccnc1)C(Cl)(Cl)Cl (stereo not given) the results were Rango complex inh 0.5%, Rango release inh 5%, miR-21 reporter -3% and GLA inh pH 4.5 5.
`Cc1ccc(C)c(N2CCN(C(=O)CCCn3c(=S)[nH]c4cc5c(cc4c3=O)OCO5)CC2)c1` gave Rango complex inh -0.4%, Rango release inh -7%, miR-21 reporter -3% and GLA inh pH 4.5 -10.
`CCOc1ccccc1C(=O)NCC(=O)NNC(=O)CN(C)S(=O)(=O)c1ccc(Cl)cc1` gave Rango complex inh -0.3% and Rango release inh -7%.
`COc1cc(-c2nc3ccc(C)cn3c2Nc2ccc3c(c2)OCCO3)ccc1O` gave Rango complex inh -1.9%, Rango release inh 17%, miR-21 reporter -10% and GLA inh pH 4.5 -5.
Screening C=COCCNC(=S)Nc1cccc(Cl)c1 returned Rango complex inh 0.0%, Rango release inh -2%, miR-21 reporter -5% and GLA inh pH 4.5 6.
`Cc1cc(C(=O)CSc2nnc(N)s2)c(C)n1-c1c(C)n(C)n(-c2ccccc2)c1=O` gave Rango complex inh 0.3%, Rango release inh -5%, miR-21 reporter 2% and GLA inh pH 4.5 -2.
`Cc1ccc(S(=O)(=O)NCCCN2CCOCC2)c(C)c1` gave Rango complex inh 0.3%, Rango release inh 5%, miR-21 reporter -3% and GLA inh pH 4.5 1.
`COc1ccc(S(=O)(=O)N2CCCC(C(=O)NC3CC3)C2)cc1OC` (stereo not given) gave Rango complex inh -0.9% and Rango release inh -11%.
`CCOCCCNC(=S)N1CCN(CC)CC1` gave Rango complex inh 0.2%, Rango release inh 0%, miR-21 reporter 3% and GLA inh pH 4.5 4.
Screening O=C(Oc1c(-c2ccccc2)c(=O)n2c3c(cccc13)CC2)c1ccco1 returned Rango complex inh inconclusive, Rango release inh -11%, miR-21 reporter 2% and GLA inh pH 4.5 2.
